Arbovirus anti – arbovirus infection inhibition | hit rate 0.37% among 200,000 | arbovirus infection cell-based antiviral screen | inhibition, % at 10 µM | AID 1251;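 active means inhibition from about 30%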;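 further: bluetongue infection of BSR cells; cell survival read as ATP light after 72 h; 0% = infected wells without compound and 100% = uninfected wells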
Mtb betalactam – beta-lactam sensitization of Mtb H37Rv; M. tuberculosis H37Rv growth with meropenem, percent inhibition; hits of this screen are not shown here; inhibition, % at 25 µM; hit rate 0.27% among 330,000; AID 434955;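 active means about 74% or more and at least 40 points above the plate without the antibiotic, then above 30% in a dose series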;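 further: growth measured after seven days incubation then overnight dye step; 0% = bacteria only wells and 100% = bacteria with antibiotic; twin plates without the antibiotic show which effects depend on it; some results filed as inactive read as strong as hits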
YopH inh – inhibitors of Yersinia enterocolitica YopH tyrosine phosphatase; fluorescence Ex485/Em525; inhibition, %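 (about 10 µM by stock and volumes)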; hit rate 0.16% among 140,000;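 active means inhibition of 50% or more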;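 further: controls were vehicle for no effect and minimum signal wells for full effect; inactives centre near -20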
RecA splice inh – blocks M. tuberculosis RecA intein splicing; cell-free RecA intein splicing, fluorescence; inhibition, %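 (about 9 µM by stock and volumes)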; hit rate 0.75% among 290,000; AID 2221; in the data active means inhibition above about 30%;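 further: 0% = vehicle wells and 100% = reference inhibitor control wells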
Target sequence (P9WHJ3 whole entry, looked up, canonical isoform): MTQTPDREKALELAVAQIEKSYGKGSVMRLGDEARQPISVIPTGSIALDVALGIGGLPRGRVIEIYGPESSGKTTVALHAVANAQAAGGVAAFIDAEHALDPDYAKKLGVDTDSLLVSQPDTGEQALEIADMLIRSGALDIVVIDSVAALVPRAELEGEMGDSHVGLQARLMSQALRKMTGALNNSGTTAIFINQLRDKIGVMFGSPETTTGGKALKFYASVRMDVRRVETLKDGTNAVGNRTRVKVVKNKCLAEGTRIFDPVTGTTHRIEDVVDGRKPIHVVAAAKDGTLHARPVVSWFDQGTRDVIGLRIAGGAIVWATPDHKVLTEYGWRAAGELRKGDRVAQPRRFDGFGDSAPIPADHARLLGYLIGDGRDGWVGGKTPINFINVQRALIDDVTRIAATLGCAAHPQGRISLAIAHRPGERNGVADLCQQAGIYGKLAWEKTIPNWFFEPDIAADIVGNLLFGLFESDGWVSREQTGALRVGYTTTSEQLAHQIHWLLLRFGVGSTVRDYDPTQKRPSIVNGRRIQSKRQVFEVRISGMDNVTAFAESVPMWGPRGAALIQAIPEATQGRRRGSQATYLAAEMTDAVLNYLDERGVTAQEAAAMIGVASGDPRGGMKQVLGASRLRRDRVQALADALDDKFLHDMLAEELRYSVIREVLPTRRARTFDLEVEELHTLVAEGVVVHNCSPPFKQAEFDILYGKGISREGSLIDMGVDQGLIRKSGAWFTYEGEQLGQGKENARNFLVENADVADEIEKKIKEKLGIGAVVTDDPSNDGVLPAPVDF
Mtb growth – M. tuberculosis H37Rv growth inhibitors, H37Rv strain (AID 1626) | M. tuberculosis H37Rv growth inhibition; higher % means a stronger effect | inhibition, % at 10 µM; hits with a dose series show IC50 in µM | hit rate 0.95% among 220,000;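 active means confirmed in a dose series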;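 further: bacteria incubated seven days before Alamar blue readout; 0% = bacteria only wells and 100% = bacteria with antibiotic wells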
Arbovirus anti repeat – further read-out of Arbovirus anti, marked with its call; inhibition, %; measured here: 10K subset replicate screen; many hits read low in the repeat;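 first of two repeat runs on a subset; 0% = infected and 100% = uninfected wells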
* = called active by the depositor; · = not tested or not shown.

SMILES	Arbovirus anti	Mtb betalactam	YopH inh	RecA splice inh	Mtb growth	others
CCn1c(SCC(=O)NCc2ccc3c(c2)OCO3)nnc1-c1ccco1	·	-4	·	-5.9	·
COc1ccc(-n2c(C)cc(C(=O)CN3C(=O)C(=O)N(Cc4ccccc4)C3=O)c2C)cc1	-34	75	·	1.0	3%
O=S(=O)(c1ccc(Cl)cc1)N1CCCC1c1cccnc1 (stereo not drawn)	·	-2	·	6.0	14%
N#Cc1cnn2c(C(F)(F)F)c3c(nc12)CCCC3	-3	-2	·	2.4	-7%
O=C(CCN1C(=O)[C@@H]2Cc3ccccc3CN2C1=O)NCc1ccccc1Cl	·	-1	·	12	·
Cc1cc(C)nc(/N=C(\N)Nc2ccc([N+](=O)[O-])cc2)n1	4	9	-21	-1.0	13%
CC(=O)Nc1ccc(S(=O)(=O)NCCC(=O)Nc2ccc(C)cn2)cc1	·	-4	·	-1.7	·
C=CCOC(=O)C1=C[C@H](c2coc3ccccc3c2=O)[C@@H](CCCO)[C@H](OCC)O1	8	-7	·	0.4	4%
CCOCCCNC(=O)/C(C#N)=C/c1ccc(C)o1	5	1	·	-2.6	5%
NS(=O)(=O)c1ccc(CCNC(=S)NC2CCCCC2)cc1	·	3	·	-2.2	-2%
CC(NC(=O)c1noc2c1CCCCC2)c1ccccc1 (stereo not drawn)	-6	4	-19	1.2	7%	Arbovirus anti repeat=0
COc1cccc(N2CCN(C(=O)c3ccc(=O)oc3)CC2C)c1 (stereo not drawn)	11	-9	-12	-0.5	3%
O=C(Nc1ccc(N2CCOCC2)cc1)Nc1ccc(Cl)c(Cl)c1	-8	-1	-6	7.0	-1%
Cc1cccn2c(=O)nc(SCC(=O)NCc3ccccc3)nc12	·	-11	·	-2.0	·
CC(=O)c1cc(-c2ccccc2)n(CCC(=O)NC(C)(C)C)c1C	1	-4	·	-2.8	8%
CCNC(=O)Nc1nc2ccccc2s1	6	-10	·	-2.3	4%
C/C(=N\NC(=O)C1COc2ccccc2O1)c1ccccn1 (stereo not drawn)	-17	86	-39	-43	44%
Cn1c(O)c(C(=NCCN2CCCCC2)c2ccccc2Cl)c(=O)n(C)c1=O	2	3	-37	2.3	-7%	Arbovirus anti repeat=15
COc1ccc(NC(=O)CN2CCN(CC(=O)Nc3ccc(F)cc3)CC2)cc1Cl	·	-9	·	1.9	·
O=C1N(c2ccccc2)C(c2ccccc2)N2CCCN12 (stereo not drawn)	·	-6	·	-0.7	3%
Nc1c(C(=O)NCC2CCCO2)sc(=S)n1-c1ccccc1 (stereo not drawn)	5	-13	-26	·	0%
O=C(O)c1ccc(N2C(=O)CSC2=S)cc1	·	4	·	-2.6	·
CCCCC(=O)NC1=NC(=O)C(C)(C)S1	9	-6	5	0.0	1%
CC(OC(=O)C1=COCCO1)C(=O)NC(C)c1ccc(Cl)cc1Cl (stereo not drawn)	·	-3	·	-3.1	·
COCCN1C(=O)N[C@@H](c2ccccc2)C(C(C)=O)=C1C	6	-7	-13	·	-9%
COc1cccc(Cn2cc(/C=N/NC(=O)c3cc(O)cc(O)c3)c3ccccc32)c1	·	-4	·	4.7	·
COc1ccc(NC(=O)CN2C(=O)CSc3ccc(S(=O)(=O)N4CCCC4)cc32)cc1OC	·	1	·	0.3	·
Cc1ccc(NC(=O)COc2ccc(Br)cc2C)cc1	3	1	2	4.9	0%
CCn1nc(C)cc1-c1n[nH]c(=S)n1N	5	-13	-26	-0.9	4%
CC1(C)CC2CC(C)(CN2C(=O)NC(=O)c2ccccc2)C1 (stereo not drawn)	-12	5	-41	-0.2	-4%
O=C(Nc1ccccc1Br)C1CC(=O)N(c2ccc3c(c2)OCCO3)C1 (stereo not drawn)	·	-9	·	2.8	·
COc1ccc(OCC(=O)Nc2cccc(NC(=O)COc3ccc(OC)cc3)n2)cc1	-9	-1	8	-1.8	0%
Cc1ccc(C(=O)N2CCN(CCNC(=O)C(=O)NCc3ccc(Cl)cc3)CC2)cc1	·	3	·	3.3	·
C=CCn1c(=O)/c(=C\c2ccccn2)s/c1=C(/C#N)C(=O)NCC1CCCO1 (stereo not drawn)	-4	-9	·	-17	1%
O=C(C(Cl)Cl)N1CCN(Cc2ccc3c(c2)OCO3)CC1	·	0	·	2.2	·
Cc1cc(=O)[nH]c2c1cnn2C(C)c1ccccc1 (stereo not drawn)	·	3	·	1.1	·
CC1(C)N=C(N)NC(Nc2ccccc2Cl)=N1	3	0	·	-0.8	-6%
CC(C)Sc1nc2ccccc2n2cnnc12	·	-3	·	-1.4	·
COc1ccccc1C(=O)O/N=C(\c1ccccc1)c1ccncc1	-3	-3	·	-0.3	3%
Cc1ccc(C(=O)Nc2nc(=O)n(C(=O)c3ccccc3C)s2)cc1	3	5	-7	12	4%

24 neighbouring records already listed, quoted:
SMILES	Arbovirus anti	Mtb betalactam	YopH inh	RecA splice inh	Mtb growth	others
C/C(=N\NC(=O)C1COc2ccccc2O1)c1ccccn1 (stereo not drawn)	-17	86	-39	-43	44%
Cn1c(O)c(C(=NCCN2CCCCC2)c2ccccc2Cl)c(=O)n(C)c1=O	2	3	-37	2.3	-7%	Arbovirus anti repeat=15
COc1ccc(NC(=O)CN2CCN(CC(=O)Nc3ccc(F)cc3)CC2)cc1Cl	·	-9	·	1.9	·
O=C1N(c2ccccc2)C(c2ccccc2)N2CCCN12 (stereo not drawn)	·	-6	·	-0.7	3%
Nc1c(C(=O)NCC2CCCO2)sc(=S)n1-c1ccccc1 (stereo not drawn)	5	-13	-26	·	0%
O=C(O)c1ccc(N2C(=O)CSC2=S)cc1	·	4	·	-2.6	·
CCCCC(=O)NC1=NC(=O)C(C)(C)S1	9	-6	5	0.0	1%
CC(OC(=O)C1=COCCO1)C(=O)NC(C)c1ccc(Cl)cc1Cl (stereo not drawn)	·	-3	·	-3.1	·
COCCN1C(=O)N[C@@H](c2ccccc2)C(C(C)=O)=C1C	6	-7	-13	·	-9%
COc1cccc(Cn2cc(/C=N/NC(=O)c3cc(O)cc(O)c3)c3ccccc32)c1	·	-4	·	4.7	·
COc1ccc(NC(=O)CN2C(=O)CSc3ccc(S(=O)(=O)N4CCCC4)cc32)cc1OC	·	1	·	0.3	·
Cc1ccc(NC(=O)COc2ccc(Br)cc2C)cc1	3	1	2	4.9	0%
CCn1nc(C)cc1-c1n[nH]c(=S)n1N	5	-13	-26	-0.9	4%
CC1(C)CC2CC(C)(CN2C(=O)NC(=O)c2ccccc2)C1 (stereo not drawn)	-12	5	-41	-0.2	-4%
O=C(Nc1ccccc1Br)C1CC(=O)N(c2ccc3c(c2)OCCO3)C1 (stereo not drawn)	·	-9	·	2.8	·
COc1ccc(OCC(=O)Nc2cccc(NC(=O)COc3ccc(OC)cc3)n2)cc1	-9	-1	8	-1.8	0%
Cc1ccc(C(=O)N2CCN(CCNC(=O)C(=O)NCc3ccc(Cl)cc3)CC2)cc1	·	3	·	3.3	·
C=CCn1c(=O)/c(=C\c2ccccn2)s/c1=C(/C#N)C(=O)NCC1CCCO1 (stereo not drawn)	-4	-9	·	-17	1%
O=C(C(Cl)Cl)N1CCN(Cc2ccc3c(c2)OCO3)CC1	·	0	·	2.2	·
Cc1cc(=O)[nH]c2c1cnn2C(C)c1ccccc1 (stereo not drawn)	·	3	·	1.1	·
CC1(C)N=C(N)NC(Nc2ccccc2Cl)=N1	3	0	·	-0.8	-6%
CC(C)Sc1nc2ccccc2n2cnnc12	·	-3	·	-1.4	·
COc1ccccc1C(=O)O/N=C(\c1ccccc1)c1ccncc1	-3	-3	·	-0.3	3%
Cc1ccc(C(=O)Nc2nc(=O)n(C(=O)c3ccccc3C)s2)cc1	3	5	-7	12	4%

(cont.)
SMILES	Arbovirus anti	Mtb betalactam	YopH inh	RecA splice inh	Mtb growth	others
COC(=O)[C@H](Cc1ccccc1)NC(=O)N1Cc2ccccc2C[C@H]1C(=O)OC	·	-5	·	3.4	·
CCN(C(=O)COc1ccccc1[N+](=O)[O-])C1CCS(=O)(=O)C1 (stereo not drawn)	0	-4	-19	2.6	-5%
Cc1nc(C)c(C(=O)Nc2ccc(Oc3ccccc3)cc2)o1	-7	3	9	1.6	-1%
CCOC(=O)c1cccc(NC(=O)CN(c2ccc(C)cc2)S(=O)(=O)c2c(C)noc2C)c1	7	12	-42	-2.1	5%
COc1ccc(N2C(=O)CC(Sc3nnc(-c4ccccc4)o3)C2=O)cc1 (stereo not drawn)	-3	-20	-40	0.9	0%
COc1ccc(C2CC(C(F)(F)F)n3nc(C(=O)O)c(Cl)c3N2)cc1OC (stereo not drawn)	7	1	-40	-3.4	8%	Arbovirus anti repeat=-1
O=C(Nc1ccc2c(c1)OCCO2)N1CCN(c2ccc(F)cc2)CC1	9	6	-13	-0.5	-7%
Cc1ccc(-c2nn(CCC(=O)O)cc2/C=C\C(=O)c2ccc(Br)cc2)cc1	23	11	·	3.8	5%
COc1ccccc1CNC(=O)N1CCN(c2ccccc2C)CC1	·	5	·	-3.1	·
O=C(NC1CCCC1)C(c1ccc(F)cc1)N(C(=O)Cc1cccs1)c1ccc2c(c1)OCCO2 (stereo not drawn)	0	-2	-5	-0.2	1%

Two entries drawn at random from the list so far, as already listed:
SMILES	Arbovirus anti	Mtb betalactam	YopH inh	RecA splice inh	Mtb growth	others
O=C(Nc1ccc2c(c1)OCCO2)N1CCN(c2ccc(F)cc2)CC1	9	6	-13	-0.5	-7%
COc1ccc(C2CC(C(F)(F)F)n3nc(C(=O)O)c(Cl)c3N2)cc1OC (stereo not drawn)	7	1	-40	-3.4	8%	Arbovirus anti repeat=-1

Additional entries.
SMILES	Arbovirus anti	Mtb betalactam	YopH inh	RecA splice inh	Mtb growth	others
CN(C)c1ccc(NC(=O)c2ccc3nsnc3c2)cc1	-3	-6	-10	-0.1	1%
O=C(CSc1nnc2ncccn12)N1CCCCCC1	2	-9	12	-0.3	-3%
COc1cc(C)c(Cl)cc1S(=O)(=O)NCC1CCCO1 (stereo not drawn)	0	1	33	1.2	-7%
COc1cc(/C=N/NC(=S)Nc2cccc(Cl)c2C)ccc1OCC(=O)N1CC(C)OC(C)C1 (stereo not drawn)	-14	2	-30	55*	7%
Nc1nn(S(=O)(=O)c2ccccc2)cc1-c1ccc([N+](=O)[O-])cc1	-6	1	-25	-2.0	2%
OCCN(CCO)CC(O)COc1ccc2c(c1)OCO2 (stereo not drawn)	4	-6	-39	-0.6	8%
CS(=O)(=O)c1ccc(Cl)c(NC(=O)COC(=O)c2cccc(S(=O)(=O)N3CCCC3)c2)c1	·	-5	·	-0.5	·
Cc1cc(-c2nnc(SCC(=O)Nc3cccc(F)c3)n2N)n[nH]1	·	-8	·	2.3	·
CC1CCCCN1CCCNC(=O)c1ccc(NC(=O)C2=CSCCO2)cc1 (stereo not drawn)	·	1	·	-6.1	·
O=C(NCCOCCNC(=O)OCc1ccccc1)OCc1ccccc1	10	9	·	-0.6	20%
COC(=O)c1c(NC(=O)c2ccccc2)sc(C(=O)c2ccccc2)c1C	-19	99	-30	0.6	9.5µM*
CSc1nc(-c2ccccc2)c(C#N)c(=O)n1C	-7	1	·	3.9	-6%
CCc1cc2c(C)cc(=O)oc2cc1Oc1ncccc1[N+](=O)[O-]	1	4	·	-0.9	2%
CC(=O)C1=C(C)Nc2ncnn2C1c1ccccc1F (stereo not drawn)	·	-2	·	0.0	·
CC(C)=C(NC(=O)c1ccco1)C(=O)NCCc1nc2ccccc2[nH]1	3	0	-30	-1.8	-5%
CC(=O)Nc1scc(-c2ccccc2)[n+]1-c1ccc(C)cc1	-11	2	·	2.3	-4%
Cc1cc(C)cc(N(CC(=O)NC2CCCC2)C(=O)CNC(=O)c2ccco2)c1	·	0	·	-0.1	·
CC(=O)OCCN(CCCn1c(-c2ccncc2)nc2ccccc21)c1nc(-c2ccc(C)cc2)cs1	·	-6	·	4.8	·
CCOc1cc2[nH]c(=S)n(CCC(=O)NCc3ccc(OC)cc3)c(=O)c2cc1OCC	1	8	-34	-1.5	·
CN(CC(=O)Nc1ccccc1C(F)(F)F)C(=O)c1cc(Cl)nc2ccccc12	·	0	·	0.5	·
Cc1sc2nc(CSCC(=O)N(C)c3ccccc3)[nH]c(=O)c2c1C	1	1	-24	1.6	9%

Source: PubChem BioAssay (several laboratories)

A portion of the library. The share of hits here may be higher or lower than overall.
